# Screens (PubChem BioAssay)
# PD-1 reversal: reversal of PD-1 mediated T-cell inhibition | primary human CD4 T cells, PD-L1 beads, CellTiter-Glo 96 h | 29,000 tested, under 10 active | activation, % (concentration not given with the values);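 active means replicate mean of 50% or more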;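 further: 0% = median vehicle wells and 100% = positive control; 100 nL library stock added to about 50 µL; numbers are from one replicate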
# MITF inh: inhibitors of MITF; TRPM1 promoter luciferase, luminescence, 24 h; inhibition, % (no concentration beside the values); actives 0.28% (n = 37,000);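 active means most replicates at 85% or more, or half of them and the mean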;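 further: human melanocyte line stably carrying TRPM1 promoter luciferase reporter; 0% = vehicle wells and 100% = a positive control; the first replicate is given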
# Hedgehog inh: Sonic Hedgehog pathway inhibition; inhibition, % (no concentration beside the values); actives 2.1% (n = 22,000); Shh-LIGHT2 Gli-luciferase reporter, 30 h;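 active means replicate mean of 65% or more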;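 further: pathway switched on by Shh-conditioned medium diluted 1 in 25 in low serum; 100 nL library stock added to about 40 µL; 0% = median of neutral wells and 100% = positive control level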
# YB-1 expression: YB-1 expression inhibition; U2OS, qRT-PCR YB-1 vs CDIP delta delta Cp, 16 h; active compounds read high; zero = DMSO, each unit about twofold; delta delta Cp (YB-1 minus CDIP) (concentration not given with the values); actives 0.37% (n = 30,000);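 active means delta delta Cp rounded down to an integer at or above 3, about 3 SD of DMSO wells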;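 further: higher means less YB-1 transcript or more CDIP transcript relative to DMSO; stock transfer was 100 nL into about 100 µL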
# Active calls of the source: *; nt = not tested or not shown. Not all compounds are listed; count on the stated rates, not on these rows.
SMILES,PD-1 reversal,MITF inh,Hedgehog inh,YB-1 expression
COc1ccc(NC(=O)Nc2ccc3c(c2)C(=O)N([C@H](C)CO)C[C@@H](C)[C@H](CN(C)C(=O)Nc2ccc4c(c2)OCO4)O3)cc1,-0.3,5,-8,-0.1
N#Cc1cccc(C#N)c1Oc1ccc(S(=O)(=O)NCc2ccco2)cc1,-0.6,11,1,-0.5
CC1(C)CC[C@]2(C(=O)O[C@@H]3O[C@H](CO)[C@@H](O)[C@H](O)[C@H]3O)CC[C@]3(C)C(=CCC4[C@@]5(C)C[C@@H](O)[C@H](O)[C@@](C)(COC(=O)c6cc(O)c(O)c(O)c6)C5[C@H](O)C[C@]43C)[C@@H]2C1 (some centres undefined),-1.1,2,5,0.3
CC(=O)Nc1ccccc1NC(=O)CN1C(=O)c2ccccc2C1=O,0.3,1,nt,nt
O=C(CCN1C(=O)C2C3C=CC(C4CC34)C2C1=O)Oc1cccc2cccnc12 (centres undefined),-15,-2,nt,nt
C[C@H]1CN([C@@H](C)CO)C(=O)c2cccc(NC(=O)Nc3ccc(F)cc3)c2O[C@H]1CN(C)C(=O)Nc1ccccc1,-2.3,3,-16,0.21
C[C@H]1CN([C@@H](C)CO)C(=O)Cc2cc(NC(=O)Cn3cnnn3)ccc2O[C@H]1CN(C)C(=O)Nc1ccccc1,nt,-5,7,-0.13
C[C@@H]1CN([C@H](C)CO)C(=O)c2cc(NC(=O)Nc3ccccc3)ccc2O[C@H]1CN(C)S(=O)(=O)c1ccc(Cl)cc1,-1.0,-19,6,-0.36
COc1ccccc1NC(=O)c1ccccc1NC(=O)COc1ccccc1C,-2.5,1,nt,nt
C[C@@H]1CN([C@H](C)CO)C(=O)c2cccc(N(C)C)c2O[C@@H]1CN(C)C,1.9,-9,3,-0.091
N#Cc1ccc(CSc2ccc(Cl)cc2)cc1,1.7,-45,-2,-0.61
C[C@@H]1CN([C@@H](C)CO)C(=O)c2cc(NS(C)(=O)=O)ccc2O[C@@H]1CN(C)Cc1ccc2c(c1)OCO2,2.7,2,nt,-0.32

# Molecules from the list above that contain a Cl atom (2):
SMILES,PD-1 reversal,MITF inh,Hedgehog inh,YB-1 expression
C[C@@H]1CN([C@H](C)CO)C(=O)c2cc(NC(=O)Nc3ccccc3)ccc2O[C@H]1CN(C)S(=O)(=O)c1ccc(Cl)cc1,-1.0,-19,6,-0.36
N#Cc1ccc(CSc2ccc(Cl)cc2)cc1,1.7,-45,-2,-0.61

# Record cards, from the list above. Order of screens: PD-1 reversal	MITF inh	Hedgehog inh	YB-1 expression
# Record of COc1ccccc1NC(=O)c1ccccc1NC(=O)COc1ccccc1C → -2.5	1	nt	nt
# Record of C[C@@H]1CN([C@H](C)CO)C(=O)c2cccc(N(C)C)c2O[C@@H]1CN(C)C → 1.9	-9	3	-0.091
# Record of N#Cc1cccc(C#N)c1Oc1ccc(S(=O)(=O)NCc2ccco2)cc1 → -0.6	11	1	-0.5
# Record of COc1ccc(NC(=O)Nc2ccc3c(c2)C(=O)N([C@H](C)CO)C[C@@H](C)[C@H](CN(C)C(=O)Nc2ccc4c(c2)OCO4)O3)cc1 → -0.3	5	-8	-0.1
# Record of C[C@H]1CN([C@@H](C)CO)C(=O)Cc2cc(NC(=O)Cn3cnnn3)ccc2O[C@H]1CN(C)C(=O)Nc1ccccc1 → nt	-5	7	-0.13

# (further entries)
SMILES,PD-1 reversal,MITF inh,Hedgehog inh,YB-1 expression
O=C(COc1ccc([N+](=O)[O-])cc1)Nc1ccc(Cl)c(-c2nc3ccccc3s2)c1,-1.9,31,nt,nt
Cc1ccc(S(=O)(=O)N(C)C[C@@H]2OCCCC[C@@H](C)Oc3ccc(NC(=O)Nc4ccc5c(c4)OCO5)cc3C(=O)N([C@H](C)CO)C[C@@H]2C)cc1,1.1,4,nt,-0.14
CCCN(C)C[C@@H]1OCCCC[C@@H](C)Oc2ccc(NC(=O)Nc3ccc(OC)cc3)cc2C(=O)N([C@H](C)CO)C[C@@H]1C,-0.1,4,nt,-0.003
CCOC(=O)c1ccc(-n2c(C)cc(C=C3C(=O)NC(=S)NC3=O)c2C)cc1,-1.6,28,9,-0.073
COc1cc(OC)cc(C(=O)Nc2ccc(OCC(=O)O)cc2)c1,-0.7,-2,nt,nt
C[C@@H]1CN([C@H](C)CO)C(=O)c2cc(NC(=O)Cn3cnnn3)ccc2O[C@H]1CN(C)C(=O)Nc1ccccc1,-0.2,-17,nt,-0.37
CC(C)OC(=O)C(C)Sc1ncnc2scc(-c3ccc(Br)cc3)c12 (centres undefined),-0.5,1,nt,nt
COc1ccc(NC(=O)Nc2ccc3c(c2)CC(=O)N([C@@H](C)CO)C[C@H](C)[C@@H](CN(C)C(=O)Nc2ccc4c(c2)OCO4)O3)cc1,0.4,1,nt,0.047
Cn1c(=NC(=O)c2ccc(F)cc2)sc2ccccc21,0.0,42,-102,-0.56
C[C@@H]1CN([C@@H](C)CO)C(=O)c2cc(NC(=O)Nc3ccc4c(c3)OCO4)ccc2O[C@@H]1CN(C)S(=O)(=O)c1ccccc1,1.1,-12,-3,0.75
Cc1ccc2c(c1)c1nnc(SCCN3CCOCC3)nc1n2C,-0.9,8,nt,nt
C[C@H](CO)N1C[C@H](C)[C@H](CN(C)Cc2ccc(C(F)(F)F)cc2)Oc2ccc(NC(=O)C3CCCCC3)cc2C1=O,-2.8,21,6,0.8
O=C(NCc1ccccn1)c1cc(-c2ccccc2)on1,1.5,-78,nt,nt
C[C@@H]1CN([C@H](C)CO)C(=O)c2cc(NC(=O)Cc3ccccc3)ccc2O[C@@H]1CN(C)S(=O)(=O)c1ccccc1,0.7,1,1,18*
CNC(=O)c1ccccc1Sc1ccccc1C(=O)NC,0.6,-15,-70,-0.35
C[C@H]1CN([C@@H](C)CO)C(=O)c2cccc(NC(=O)Nc3ccc4c(c3)OCO4)c2O[C@H]1CN(C)S(=O)(=O)c1ccc(Cl)cc1,-3.9,8,107*,0.58
C[C@H](CO)N1C[C@H](C)[C@H](CN(C)S(=O)(=O)c2ccc(F)cc2)Oc2c(NC(=O)Nc3ccc(F)cc3)cccc2C1=O,nt,-15,101*,0.028
C[C@H](CO)N1C[C@H](C)[C@H](CN(C)S(=O)(=O)c2cn(C)cn2)Oc2ccc(NC(=O)CCCCCC(=O)Nc3ccccc3N)cc2C1=O,0.5,-23,nt,-0.083
CC(CN1CCCCC1)NC(=O)c1cc(-c2ccccn2)nc2ccc(Cl)cc12 (centres undefined),1.1,7,nt,nt
C[C@@H]1CN([C@@H](C)CO)C(=O)c2cccc(NS(=O)(=O)c3cccs3)c2O[C@H]1CN(C)C(=O)Nc1ccc(C(F)(F)F)cc1,1.7,0,-25,-0.22
C[C@H](CO)N1C[C@H](C)[C@@H](CN(C)S(C)(=O)=O)Oc2c(NC(=O)C3CCCCC3)cccc2C1=O,1.6,-1,-5,-0.28
COc1ccc(CN(C)C[C@H]2Oc3ccc(NC(=O)NC(C)C)cc3CC(=O)N([C@@H](C)CO)C[C@@H]2C)cc1,nt,-9,8,0.28
COc1ccc(S(=O)(=O)N(C)C[C@H]2Oc3c(NC(=O)Nc4ccc5c(c4)OCO5)cccc3C(=O)N([C@H](C)CO)C[C@@H]2C)cc1,0.2,-31,18,0.55
COC(=O)c1c(NC(=O)COc2ccccc2C(C)C)sc2c1CCCC2,0.2,-3,nt,nt

# 2 of these compounds in a different format.
SMILES	PD-1 reversal	MITF inh	Hedgehog inh	YB-1 expression
C[C@@H]1CN([C@H](C)CO)C(=O)c2cc(NC(=O)Cc3ccccc3)ccc2O[C@@H]1CN(C)S(=O)(=O)c1ccccc1	0.7	1	1	18*
CNC(=O)c1ccccc1Sc1ccccc1C(=O)NC	0.6	-15	-70	-0.35

# (listing goes on)
SMILES,PD-1 reversal,MITF inh,Hedgehog inh,YB-1 expression
O=C(CSc1nnc(-c2cnccn2)n1-c1ccccc1)Nc1ccc(Br)cc1,-0.5,3,nt,nt
C[C@H]1CN([C@@H](C)CO)C(=O)c2cccc(NS(=O)(=O)c3cccs3)c2O[C@H]1CN(C)Cc1ccc(C(=O)O)cc1,1.8,-1,8,-0.19
C[C@@H]1CN([C@H](C)CO)C(=O)c2cccc(NC(=O)NC3CCCCC3)c2O[C@@H]1CN(C)S(=O)(=O)c1ccc(F)cc1,nt,-1,6,0.051
C[C@H](CO)N1C[C@H](C)[C@@H](CN(C)Cc2ccc(Oc3ccccc3)cc2)Oc2ccc(NC(=O)CCN3CCOCC3)cc2C1=O,nt,-16,12,0.088
Cc1ccc(S(=O)(=O)N2C(=O)CCC2C(N)=O)cc1 (centres undefined),1.4,-4,nt,nt
COc1ccc(NC(=O)N(C)C[C@@H]2Oc3c(NC(=O)Nc4ccccc4)cccc3C(=O)N([C@H](C)CO)C[C@H]2C)cc1,nt,2,27,0.15
Cc1ccc(C(=O)NCCN2CCOCC2)cc1S(=O)(=O)N1CCCCC1,3.3,6,nt,nt
COc1cccc(CC(=O)Nn2c(C)nc3ccccc3c2=O)c1,1.0,8,9,0.041
Cc1noc(C)c1NC(=O)Nc1cccc2c1O[C@H](CN(C)Cc1ccc(C(=O)Nc3ccccc3N)cc1)[C@H](C)CN([C@H](C)CO)C2=O,-0.5,-22,nt,0.069
S=c1[nH]nc(CSCc2cccc3ccccc23)n1C1CCCCC1,-0.3,18,69*,-0.046
Cn1c2ccccc2n2nc(CCC(=O)O)c(=O)nc12,2.0,-6,nt,nt
C[C@@H]1CN([C@@H](C)CO)C(=O)c2cc(NC(=O)Nc3ccc4c(c3)OCO4)ccc2O[C@@H]1CN(C)C(=O)Nc1ccc2c(c1)OCO2,-1.4,-3,12,0.1
Nc1nc(-c2ccncc2)ncc1S(=O)(=O)Cc1ccco1,0.2,5,-16,0.16
C[C@@H]1CN([C@H](C)CO)C(=O)c2cc(NC(=O)Nc3ccc4c(c3)OCO4)ccc2O[C@H]1CN(C)Cc1ccc(Oc2ccccc2)cc1,2.6,-2,nt,-0.092
CC(C)(C)C(=O)N1CCN(c2nc3ccc(Cl)cc3s2)CC1,-2.2,-40,-60,-0.32
Cc1cc(C)c(NC(=O)CN(c2ccc(F)cc2)S(C)(=O)=O)c(C)c1,3.9,18,nt,nt
C[C@@H]1CN([C@@H](C)CO)C(=O)c2cc(NS(=O)(=O)c3ccccc3)ccc2O[C@@H]1CN(C)Cc1ccc(Oc2ccccc2)cc1,-2.9,23,22,0.0052
C[C@@H]1CN([C@H](C)CO)C(=O)c2cc(NS(=O)(=O)c3ccc(F)cc3)ccc2O[C@@H]1CN(C)C(=O)Nc1ccc(F)cc1,-1.4,-1,22,0.063
C[C@@H]1CN([C@H](C)CO)C(=O)Cc2cc(NS(=O)(=O)c3cn(C)cn3)ccc2O[C@H]1CN(C)CC1CC1,nt,-3,-15,-0.04
Nc1nnc(SCc2nc3ccccc3n2Cc2ccccc2)s1,1.3,9,nt,nt
COc1ccc(-n2c(-c3cccc(OC)c3)csc2=NCc2cccnc2)cc1,0.7,54,71*,0.34
Cc1cc(Br)c(NC(=O)CSc2nnc(-c3ccc(Cl)cc3)n2C)cc1C,1.8,-2,nt,nt
Cc1noc(C)c1S(=O)(=O)N(C)C[C@@H]1Oc2ccc(NS(C)(=O)=O)cc2C(=O)N([C@@H](C)CO)C[C@@H]1C,0.6,-5,nt,0.21
C[C@H](CO)N1C[C@H](C)[C@@H](CN(C)Cc2ccc3c(c2)OCO3)Oc2c(NC(=O)c3cnccn3)cccc2C1=O,-0.6,4,27,-0.26
Cc1ccc(NC(=O)c2cc(NC(=O)C3CC=CCC3C(=O)O)ccc2N2CCOCC2)cc1Cl (centres undefined),1.5,-10,nt,nt
C[C@@H]1CN([C@@H](C)CO)C(=O)Cc2cc(NS(=O)(=O)c3ccccc3)ccc2O[C@@H]1CN(C)Cc1ccncc1,-0.7,-1,-5,-0.19
